Screening data deposited in PubChem by National Center for Advancing Translational Sciences (NCATS).
Menin MLL FP FL = inhibitors of human menin-MLL interaction, wild-type MLL peptide | Fluorescence polarization, fluorescein-MLL peptide displacement from menin | FP activity change, % at 61.4 µM | 290,000 tested, under 10 active; inconclusive = falling polarisation curve, or a change in total fluorescence; inactive = total fluorescence flat and polarisation flat or rising; no compound was filed as active; the % refers to the polarisation; negative = inhibition;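 further: % of control where 0% means no effect; inhibitors lower the polarisation; unlabelled MLL peptide was the positive control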
Sfp PPTase inh = inhibitors of Bacillus subtilis Sfp phosphopantetheinyl transferase. 310,000 compounds, 3.5% hits. Biochemical Sfp PPTase activity, qHTS. Q9F4F7. AID 1490. Potency, µM, for inactives: max response, negative = inhibition, actives largely listed as inhibitors; active means well fitted inhibition curve with a large enough effect; inconclusive means small, poorly fitted or top-dose-only effect, or another doubt; inactive means no such curve, though single readings can be large or run the other way;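 further: the enzyme is Sfp with the accession as filed and its product quenches rhodamine fluorescence; potency means the concentration at half of the fitted maximal effect; 0% = enzyme reaction without inhibitor and -100% = no enzyme wells; top concentration of the series not given in the record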
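Sfp 15 nM + cpd, 15 min RT; start w/ rhodamine-CoA 5 uM, BHQ-2-YbbR 12.5 uM (final); 50 mM Hepes pH 7.6, 10 mM MgCl2, 0.01% NP-40, 0.01% BSA; read 525/598 nm at 0 and 30 min.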
TRPML1 blocker = inhibitors of human TRPML1 channel; Q9GZU1; TRPML1-inducible cells, Ca2+ dye fluorescence, FDSS; hits give low values; inhibition of EC80 agonist-evoked calcium signal; activity change, negative = inhibition, % (no concentration beside the values); 390,000 compounds, 0.02% hits; AID 624415; in the data active means activity change below about -50%; inconclusive means about -30% to -50%; inactive means above about -30%;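 further: stimulus is agonist 54-4 at its EC80 concentration; on the % scale 0 is the no-effect control and ±100 the full control effect; compound concentration not given in the record; the text of the record puts the active cut at -80%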
Target sequence (Q9GZU1 whole entry, looked up): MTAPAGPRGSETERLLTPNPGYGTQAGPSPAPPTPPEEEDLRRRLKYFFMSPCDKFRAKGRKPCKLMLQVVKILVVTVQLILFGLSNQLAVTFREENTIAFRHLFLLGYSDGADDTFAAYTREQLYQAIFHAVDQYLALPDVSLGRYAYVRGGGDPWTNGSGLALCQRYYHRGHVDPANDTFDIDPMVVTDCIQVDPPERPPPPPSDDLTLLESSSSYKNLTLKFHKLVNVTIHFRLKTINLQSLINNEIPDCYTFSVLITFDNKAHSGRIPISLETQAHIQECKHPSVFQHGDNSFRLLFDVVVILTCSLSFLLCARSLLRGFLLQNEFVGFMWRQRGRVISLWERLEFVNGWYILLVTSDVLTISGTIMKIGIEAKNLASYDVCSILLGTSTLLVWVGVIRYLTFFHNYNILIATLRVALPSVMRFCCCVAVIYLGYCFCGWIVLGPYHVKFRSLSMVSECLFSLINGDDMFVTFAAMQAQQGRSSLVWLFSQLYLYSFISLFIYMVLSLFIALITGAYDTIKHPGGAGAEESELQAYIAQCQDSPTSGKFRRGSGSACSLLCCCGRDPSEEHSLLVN
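Tet-induced TRPML1-DL cells loaded with Ca8 no-wash calcium dye were read kinetically on FDSS. Compound addition was followed by EC80 agonist 54-4 (4 uM final); inhibition was read over 110 s.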
ClpP mod = qHTS Assay for Activators of ClpP; AID 651965, 2013; ATP-dependent Clp protease proteolytic subunit (Bacillus subtilis (strain 168)), P80244; Potency, µM (highest dose often 57.5 µM), without a hit: at the top dose activity change, negative = active; purified B. subtilis ClpP, FRET peptide cleavage, 20 min; 340,000 compounds, 1.9% hits; active = well fitted falling curve with a large enough effect; inconclusive = small, poorly fitted or top-dose-only effect; inactive = no such curve, though single readings can be large or run the other way; further: potency means the concentration at half of the fitted maximal effect; the source files actives as falling curves though it sought activators and does not explain the sign; nearly all actives have a fitted effect of over 65% in size; many hits overshoot -100%
Target sequence (P80244 whole entry, looked up): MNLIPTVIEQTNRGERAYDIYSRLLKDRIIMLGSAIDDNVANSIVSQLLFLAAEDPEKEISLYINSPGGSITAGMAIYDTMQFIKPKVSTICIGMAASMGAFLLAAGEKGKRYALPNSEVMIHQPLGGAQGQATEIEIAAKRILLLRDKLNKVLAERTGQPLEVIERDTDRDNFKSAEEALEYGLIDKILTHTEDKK
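ClpP 10 microg/mL final, pH 8 Tris/KCl buffer with BSA, glycerol, Tween-20; compound pinned in; FRET-FV substrate; RT 20 min; Ex320/Em430; ΔFRET vs ADEP 5.8 microM, DMSO, no enzyme.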
TRPV1 PAM = enhances activation of the human vanilloid receptor TRPV1; Q8NER1; TRPV1-expressing cells, Fluo-8 calcium influx, capsaicin EC20 potentiation; host cell line not named in the record; control for the full effect not named in the record; potentiation, % at 8.33 µM; 320,000 compounds, 0.02% hits; AID 540277; active means potentiation above 80%; inconclusive means 30% to 80%; inactive means below 30%; further: 0% is about no effect
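Fluo-8 calcium influx in TRPV1-expressing cells, kinetic read (ex 480/em 520 nm). Compound added and read 3 min for agonist activity, followed by capsaicin at EC20 final and 2 min further read for enhancement.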
TRPML1 ag = human mucolipin-1 channel agonism; TRPML1-expressing cells, Ca2+ dye fluorescence, FDSS; host cell line not named in the record; reference of the full effect not given here; activation, % (test concentration not listed); 410,000 compounds, 0.12% hits; AID 624414; in the data active = activation above about 50%; inconclusive = about 30% to 50%; inactive = below about 30%; further: 0% is about no effect; the text of the record puts the active cut at 80%
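Tet-induced TRPML1-DL cells, 1,500 per well, cultured overnight, were loaded with a no-wash Ca2+ dye for 45–90 min. Calcium fluorescence was recorded on the FDSS for 110 s after compound addition, before the EC80 agonist (4 uM 54-4) was added.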
PINK1 expr mod = modulators of PINK1 expression; PINK1 immunofluorescence, high-content cytometry, 24 h; 410,000 compounds, 0.2% hits; AID 624263; Potency, µM (doses to about 76.6 µM), for the others: at the highest dose activation (PINK1 increase), actives largely listed as activators; active = well fitted activation curve with a large enough effect; inconclusive = small, poorly fitted or top-dose-only effect; inactive = flat fitted curve, though single readings scatter; cell line not stated here;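 further: potency means the concentration at half of the fitted maximal effect; % of control where 0% means no effect; nearly all actives have a fitted effect of over 65% in size; a mitochondrial uncoupler was the plate control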
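Decision-based qHTS: stable cells, 24 h exposure to five compound concentrations, CCCP as control. Fixed cells stained for PINK1 plus nuclear, mitochondrial and cell markers, cytometer read.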
* = called active by the depositor; ? = inconclusive; / = not tested or not shown; & = joins results of further samples; [ ] = another dose, or the depositor's remark.

Each structure is followed by: Menin MLL FP FL	Sfp PPTase inh	TRPML1 blocker	ClpP mod	TRPV1 PAM	TRPML1 ag	PINK1 expr mod
- COc1cccc(N(CC(=O)N/N=C(\C)c2cccs2)S(C)(=O)=O)c1
 : 9.7	-4%	20	?	6	0.7	6.1%
- Cc1cc(C)n(CC(O)CN(c2ccccc2)S(=O)(=O)c2ccc3ccccc3c2)n1 (configuration not stated)
 : 8.1	-10%	-9	1.3%	-1	2.5	3.3%
- Cc1nc([N+](=O)[O-])nn1C12CC3CC(CC(Cl)(C3)C1)C2
 : 2.0	27%	10	2.2%	8	1.0	-0.5%
- Cc1ccc(Cl)cc1NC(=O)c1cc(S(=O)(=O)N2CCCCCC2)cn1C
 : /	/	4	-3.5%	/	0.0	3.0%
- COc1ccc(COC(=O)C2=C(C)NC(=O)NC2c2ccc(O)cc2)cc1 (configuration not stated)
 : -1.5	6%	-4	0.5%	1	-0.7	1.5%
- CC(=O)c1cc(-c2ccccc2)n(CCC(=O)NC2CCCCCC2)c1C
 : 1.7	-18%	-12	-1.0%	-17	2.2	1.7%
- O=S(=O)(NC1CCCCC1N1CCOCC1)c1ccc(Cl)cc1 (configuration not stated)
 : -1.5	13%	-15	/	-19	-0.1	-1.5%
- Clc1ccc(Nc2ccc(Cl)nn2)cc1
 : 1.5	16%	16	/	-28	0.3	-0.3%
- COc1cc(O)c2c(=O)c(-c3ccc(O[C@@H]4O[C@H](CO)[C@@H](O)[C@H](O)[C@H]4O)cc3)coc2c1
 : 1.6	8%	0	-0.4%	2	-0.8	-0.2%
- Cc1ccc(NC(=O)c2ccc(Cl)c(N3C(=O)CCC3=O)c2)cc1
 : /	4%	12	0.8%	-5	0.7	1.1%
- COc1ccccc1Oc1c(C)oc2c(CN3CCN(CCO)CC3)c(O)ccc2c1=O
 : -3.2	23%	28	?	2	-0.4	-1.7%
- CN(C)c1ccc(/C=C/c2ccnc3cc(Cl)cc(Cl)c23)cc1
 : /	/	/	-4.6%	/	9.6	-0.3%
- Cc1nn(-c2ccccc2)c(C)c1NC(=O)COC(=O)CCc1ccccc1
 : /	/	-11	-3.0%	/	-0.6	-0.7%
- COc1ccc(CNC(=O)CCc2nc3cccnc3n2Cc2ccccc2)cc1
 : /	/	91	-1.2%	/	1.8	4.6%
- CCc1ccccc1NC(=O)C1(S(=O)(=O)c2ccc(C)cc2)CC1
 : -1.6	15%	23	/	1	3.7	0.3%
- O=S1(=O)CCOC[C@H](c2ccccc2)N1Cc1ccccc1F
 : 1.1	6%	6	-2.9%&-0.5%	-5	-0.1&-0.5	0.1%
- Cc1ccccc1-n1c(-c2ccncc2)n[nH]c1=S
 : 0.1	?	20	-24%	9	0.5	2.2%
- COc1cc(CN(C(=O)c2ccc(OC(C)C)cc2)C2CCS(=O)(=O)C2)cc(OC)c1OC (configuration not stated)
 : /	/	-10	-1.5%	/	1.6	0.1%
- CCOC(=O)C1CCN(Cc2cc(C(C)(C)C)c(O)c(C(C)(C)C)c2)CC1
 : 7.8	?	8	/	-4	-0.6	9.9%
- Fc1ccc(Nc2nc(NCc3ccco3)c3ccccc3n2)cc1
 : -1.0	13µM*	28	3.9%	-7	1.9	-0.4%
- CC1CCN(C(=O)C2CCN(S(=O)(=O)N3CCC4(CC3)OCCO4)CC2)CC1
 : -12	18%	-4	/	-5	-0.7	1.5%
- Cc1coc2cc3oc(=O)c(CC(=O)NCc4cccc(Cl)c4)c(C)c3cc12
 : /	/	5	4.4%	/	4.7	3.1%
- COC(=O)c1cc(=O)n(Cc2ccco2)c(=Nc2ccc(F)c(Cl)c2)s1
 : 2.0	?	6	1.4%	3	0.4	0.6%
- C[C@H](CO)N1C[C@H](C)[C@@H](CN(C)S(=O)(=O)c2ccc(F)cc2)Oc2ccc(NC(=O)c3ccncc3)cc2C1=O
 : /	/	-18	-4.2%	/	-0.9	-0.1%
- O=C([C@H]1O[C@@H](n2ccc(=O)[nH]c2=O)[C@H](O)[C@@H]1O)N1CCN(Cc2ccccn2)CC1
 : /	/	/	2.2%	/	-0.4	2.3%
- CCC(NC(=O)OCc1ccccc1)C(=O)Oc1ccc2ccc(=O)oc2c1 (configuration not stated)
 : -3.4	-11%	-5	/	-19	0.1	0.9%
- Cc1nc([N+](=O)[O-])c(C(=O)OCc2ccccc2F)n1C
 : -1.5	1%	-16	/	-24	-0.5	4.6%
- COC(=O)Nc1ccc(OC)c(OC)c1
 : 1.0	-15%	-3	-2.8%	-2	0.4	6.0%[38.3 µM]
- CCC(C)(C)n1nnnc1C(c1ccccc1F)N1CCC(C(N)=O)CC1 (configuration not stated)
 : -1.6	24%	1	-3.8%	21	-0.5	-1.0%
- CC(C)c1ccc(NC(=O)COC(=O)C2CC3C=CC2C3)cc1 (configuration not stated)
 : /	/	-7	-3.4%	/	1.0	5.5%
- O=C(NNc1cc(Cl)cc(Cl)c1)c1cccs1
 : 4.7	-7%	-2	/	/	0.1	0.9%
- COc1ccc(C2/C=C\CN(CC(C)(C)C)CC(=O)N2Cc2ccc(F)cc2)cc1 (configuration not stated)
 : 5.1	-5%	48	0.8%	16	1.0	14%
- O=C(N1CCOCC1)N1CCC(NC(=O)C23CC4CC(CC(C4)C2)C3)CC1
 : 1.0	7%	9	-0.9%	-14	0.3	-0.2%
- CCOC(=O)[C@]12CCC=C1N(Cc1ccccc1)C(=O)[C@H](CC(=O)NCCc1ccccc1OC)C2
 : /	/	/	-2.2%	/	-0.6	0.2%
- O=C(Nn1cnnc1)c1ccncc1
 : 4.2	5%	12	1.2%	-1	-0.6	-0.9%
- CCc1ccc(OCC(=O)Nc2ccncc2)c(Br)c1
 : 0.8	0%	13	/	5	0.7	6.5%
- O=C(c1ccc2ccccc2c1)N1CCc2ccccc21
 : 3.0	12%	20	/	8	2.4	0.3%
- O=C1C=CN2CCCC2CC1 (configuration not stated)
 : /	/	0	-2.5%	/	0.1	-0.6%
- Cc1ccc(C)c(N2CCN(C(=O)CCNS(=O)(=O)c3ccc4c(c3)oc(=O)n4C)CC2)c1
 : 7.4	12%	7	-4.3%	-12	-1.0	2.7%
- O=C(Nc1ccc2c(c1)CCC2)c1cnccn1
 : 1.4	-18%	-14	-5.0%	-37	-0.2	-2.3%[38.3 µM]
- O=c1c(-c2ccc(F)cc2)nc2cnc(Oc3cccc(Cl)c3)nc2n1C[C@H]1CCCO1
 : 0.5	2%	/	/	/	/	0.3%
- Cc1nn(C)cc1CNC(=O)c1cc2n(n1)C(C(F)(F)F)CC(c1cccs1)N2 (configuration not stated)
 : 5.4	-2%	13	-6.6%	-14	-0.1	/
- CC(=O)NCc1ccc(C(=O)COC(=O)COc2ccccc2)s1
 : /	/	21	2.4%	6	2.5	0.2%
- CCc1nc(NCC2CC2)c2nnn(Cc3ccccc3)c2n1
 : /	/	-23	-14%	/	-0.1	4.8%
- CCOC(=O)C1CCN(C(=O)C2CC(=O)N(c3ccc4c(c3)OCCO4)C2)CC1 (configuration not stated)
 : /	7%	22	1.9%	-10	-0.1	-0.8%
- FC(F)(F)c1ccc2c(c1)n(Cc1ccccc1)c1[n+]2CCCCC1
 : -4.0	-38%	-11	0.6%	3	-0.4	1.2%
- Cc1cnc(NC(=O)CN2C(=O)C3CC=CCC3C2=O)s1 (configuration not stated)
 : -6.9	-11%	18	-4.2%	7	0.6	-1.5%
- Cc1ccc(S(=O)(=O)N(C)Cc2ccc(C(=O)N/N=C3\CCCC(=O)C3)cc2)cc1
 : 1.9	-8%	-3	?	-1	-0.6	2.0%
- COC(=O)CNc1nc(OC)nc(N(C)C)n1
 : 0.9	9%	-16	-1.0%	1	-0.4	1.3%
- O=C(Nc1c(Br)cc2c(c1Br)Cc1ccccc1-2)C(Cl)Cl
 : /	/	22	-2.3%	/	0.0	-3.2%
- COc1ccc2c(c1)c(CCN1C(=O)c3ccccc3C1=O)cn2C(=O)c1ccco1
 : 6.0	-7%	22	12%	-8	0.5	14%[38.3 µM]
- CC1=C(C(=O)Nc2ccccc2)C(c2ccc(C)o2)N2C(=O)CSC2=N1 (configuration not stated)
 : 8.8	-7%	-11	-8.1%	-8	0.0	-1.9%
- COc1cccc(-c2nn(-c3ccc(C)cc3)cc2C(=O)N2CCN(C3CCS(=O)(=O)C3)CC2)c1 (configuration not stated)
 : /	/	-1	-9.5%	-4	-0.2	0.7%
- OCC(CO)(CO)NCc1ccc(-c2ccccc2)cc1
 : 4.5	3%	-7	0.8%	16	0.6	-2.1%
- C/C(=N\NC(=O)C1CCCN(S(=O)(=O)c2ccccc2)C1)c1ccccn1 (configuration not stated)
 : 0.2	9%	14	-0.6%	10	-0.6	1.0%
- COc1cccc(CN2CCC(C(=O)N3CCC(C)CC3)CC2)c1
 : 4.4	?	14	1.7%	2	5.5	-0.5%
- Cc1oc(-c2cccs2)nc1CN1CCN(Cc2ccc(F)c(F)c2)C(CCO)C1 (configuration not stated)
 : -1.8	4%	-1	/	2	-0.4	0.2%
- O=C(/C=C/c1ccccc1)N1CCN(c2ccccn2)CC1
 : -6.2	8%	-4	-0.1%	-13	-0.3	-0.5%
